# gsp antagonist – qHTS for Antagonists of gsp, the Etiologic Mutation Responsible for Fibrous Dysplasia/McCune-Albright Syndrome: qHTS; Potency, µM (top dose mostly 76.9 µM), for the others: at the highest dose activity change, negative = inhibition, most hits filed as inhibitors; gsp-mutant cells, cAMP HTRF, 30 min; control for the full effect not named in the record; AID 624288, 2012; hit rate 0.4% among 340,000; active = falling curve of any shape with a large fitted effect; inconclusive = falling curve, mostly with a smaller effect; inactive = flat or rising curve; cell line not stated here;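 also: intracellular cAMP measured with PDE inhibitor Ro 20-1724 present during compound exposure; potency is read from the fitted curve at half-maximal effect; % is scaled to controls: 0 for no effect and ±100 for the full control effect; nearly all actives have a fitted effect of over 65% in size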
#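 Measurement of cellular cAMP by homogeneous time-resolved fluorescence following a 30 min compound exposure at 37C. The PDE inhibitor […] was present throughout; the assay buffer was DPBS with 0.05% BSA and 0.005% Tween 20.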
# TRPML1 inh – qHTS for Inhibitors of the Human Mucolipin Transient Receptor Potential 1 (TRPML1). TRPML1-inducible cells, Ca2+ dye fluorescence, FDSS; active compounds read low; inhibition of EC80 agonist-evoked calcium signal. activity change, negative = inhibition, % (test concentration not listed). hit rate 0.02% among 390,000. AID 624415, 2012; in the data active means activity change below about -50%; inconclusive means about -30% to -50%; inactive means above about -30%;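 also: stimulus is agonist 54-4 at its EC80 concentration; % is scaled to controls: 0 for no effect and ±100 for the full control effect; compound concentration not given in the record; the text of the record puts the active cut at -80%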
# Target sequence (Q9GZU1 whole entry, looked up): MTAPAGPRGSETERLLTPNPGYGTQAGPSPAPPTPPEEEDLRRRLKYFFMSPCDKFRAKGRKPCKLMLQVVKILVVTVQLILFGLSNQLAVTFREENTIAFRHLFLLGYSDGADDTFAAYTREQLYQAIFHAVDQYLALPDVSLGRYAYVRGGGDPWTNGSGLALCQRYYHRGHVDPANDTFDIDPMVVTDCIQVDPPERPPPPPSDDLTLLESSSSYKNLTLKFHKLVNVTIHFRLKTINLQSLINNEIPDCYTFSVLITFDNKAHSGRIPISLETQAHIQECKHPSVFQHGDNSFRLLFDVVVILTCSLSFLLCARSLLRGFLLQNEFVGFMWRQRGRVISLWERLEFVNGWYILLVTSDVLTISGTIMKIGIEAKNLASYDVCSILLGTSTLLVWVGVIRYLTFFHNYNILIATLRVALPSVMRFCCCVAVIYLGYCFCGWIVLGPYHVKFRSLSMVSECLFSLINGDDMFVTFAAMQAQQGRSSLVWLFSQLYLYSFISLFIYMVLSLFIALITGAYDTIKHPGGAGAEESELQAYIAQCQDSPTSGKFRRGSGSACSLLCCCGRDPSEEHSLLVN
#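 TRPML1-DL cells, Tet-induced overnight (~16 h, 37 °C) at 1,500 cells/well, were loaded with Ca8 no-wash dye plus quencher for 45-90 min at room temperature. Compounds were pinned during FDSS kinetic reading; agonist 54-4 at EC80 (4 uM final) then added.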
# gsp agonist – qHTS for Agonist of gsp, the Etiologic Mutation Responsible for Fibrous Dysplasia/McCune-Albright Syndrome: qHTS | gsp mutant cells, cAMP HTRF, 30 min; control for the full effect not named in the record | Potency, µM (highest dose often 76.9 µM), for the others: top-dose activation (cAMP increase), usual class: activators | hit rate 0.13% among 340,000; active = well fitted activation curve with a large enough effect; inconclusive = small, poorly fitted or top-dose-only effect, or another doubt; inactive = no such curve, though single readings can be large or run the other way; cell line not stated here;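 also: phosphodiesterase inhibitor Ro 20-1724 added with compounds to block cAMP breakdown; potency is read from the fitted curve at half-maximal effect; nearly all actives have a fitted effect of over 60% in size; about a fifth of the inactives were tested at one dose only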
#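 Cells in DMEM/10% FBS with G418 were pretreated with compounds in DMSO plus […] (300 uM stock) for 30 min at 37C. cAMP was measured by HTRF (cAMP-d2 plus anti-cAMP antibody-K) after 30 min at room temperature.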
# ClpP mod – qHTS Assay for Activators of ClpP | ATP-dependent Clp protease proteolytic subunit (Bacillus subtilis (strain 168)), P80244 | purified B. subtilis ClpP, FRET peptide cleavage, 20 min | Potency, µM (series often up to 57.5 µM), inactives show at the top dose activity change, negative = active | hit rate 1.9% among 340,000 | AID 651965, 2013; active = well fitted falling curve with a large enough effect; inconclusive = small, poorly fitted or top-dose-only effect; inactive = no such curve, though single readings can be large or run the other way; also: potency is read from the fitted curve at half-maximal effect; the source files actives as falling curves though it sought activators and does not explain the sign; nearly all actives have a fitted effect of over 65% in size; many hits overshoot -100%
# Target sequence (P80244 whole entry, looked up): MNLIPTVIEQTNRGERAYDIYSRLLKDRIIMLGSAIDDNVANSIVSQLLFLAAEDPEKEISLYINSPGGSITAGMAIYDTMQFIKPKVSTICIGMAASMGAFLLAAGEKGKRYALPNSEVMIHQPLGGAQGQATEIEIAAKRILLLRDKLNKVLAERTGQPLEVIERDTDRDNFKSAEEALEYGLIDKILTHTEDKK
#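 Purified B. subtilis ClpP, 10 microg/mL final in Tris/HCl pH8 with KCl, BSA, glycerol and Tween-20, cleaved an Abz/nitrotyrosine-quenched decapeptide. Fluorescence (ex 320, em 430) was read at 0 and 20 min at room temperature. Delta was normalized to 5.8 microM ADEP and DMSO/no-enzyme controls.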
# Menin-MLL FL inh – qHTS Assay for Inhibitors Targeting the Menin-MLL Interaction in MLL Related Leukemias: Competition With Fluorescein Labeled MLL-derived Peptide; Fluorescence polarization, fluorescein-MLL peptide displacement from menin; FP activity change, % at 61.4 µM; 290,000 tested, under 10 active; inconclusive = falling polarisation curve, or a change in total fluorescence; inactive = total fluorescence flat and polarisation flat or rising; no compound was filed as active; the % refers to the polarisation; negative = inhibition;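 also: % of control where 0% means no effect; inhibitors lower the polarisation; unlabelled MLL peptide was the positive control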
# TRPML1 agonist – qHTS for Agonists of the Human Mucolipin Transient Receptor Potential 1 (TRPML1) | hit rate 0.12% among 410,000 | Mucolipin-1 (Homo sapiens), Q9GZU1 | AID 624414, 2012 | activation, % (no concentration beside the values) | TRPML1-expressing cells, Ca2+ dye fluorescence, FDSS; host cell line not named in the record; reference of the full effect not given here; in the data active = activation above about 50%; inconclusive = about 30% to 50%; inactive = below about 30%; also: 0% is about no effect; the text of the record puts the active cut at 80%
#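 Agonist activity was taken from a 110 s kinetic Ca2+ dye read on the FDSS after pinning compounds onto TRPML1-DL cells. The cells were seeded at 1,500/well with Tet inducer, incubated about 16 h, then dye-loaded at room temperature.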
# * = called active by the depositor; ? = inconclusive; nt = no result given; & = joins results of further samples; [ ] = another dose, or the depositor's remark. No enrichment for hits; 2.1% or so of the library scored in one or more.
SMILES,gsp antagonist,TRPML1 inh,gsp agonist,ClpP mod,Menin-MLL FL inh,TRPML1 agonist
CCOC(=O)c1sc(CS(=O)(=O)c2ccc(Cl)cc2)nc1C,0%,13,10%[15.4 µM],nt,1.8,1.9
COCC(N)(c1ccccc1)c1nc2ccccc2n1C (centres undefined),10%,-4,-30%,-1.3%,-3.2,-0.3
O=C(Cc1ccccc1[N+](=O)[O-])NC1CC2CCC1C2 (centres undefined),1%,16,-18%,nt,-0.2,-0.1
Cc1cc(Cl)ccc1OCc1nnc2n1CCCCC2,-5%,6,-40%[inhibitor],-2.5%,3.9,1.8
Cc1noc(/C=C/N(C)C)c1S(=O)(=O)N1CCCC(C(=O)NC2CCCCC2C)C1 (centres undefined),-13%,-8,22%,0.5%,-0.9,0.5
O=c1[nH]cccc1-c1nc2ccccc2n1Cc1cccc(Cl)c1,-1%,2,17%,3.6%,7.4,1.4
CCOc1ccc(CCNC(=O)c2ccc3c(c2)c(C)c(C)n3C)cc1,nt,19,nt,?,nt,2.6
CCN(CC)c1ccc(CNc2nc3ccccc3n2CC)cc1,9%,11,-34%[15.4 µM],nt,3.7,3.0
CCc1cccc(NS(=O)(=O)c2ccc3c(c2)CC(C)N3C(=O)C2CC2)c1 (centres undefined),nt,0,nt,0.4%,nt,1.5
CC1=C(/C=C/C(C)=N\NC(=O)c2ccncc2)C(C)(C)CCC1,2%,-12,-3%[15.4 µM],nt,-2.4,-0.6
COc1cccc(CNC(=O)c2sc3nc4n(c(=O)c3c2C)CCC4)c1,nt,-15,nt,-7.2%,nt,-0.2
COc1ccccc1-c1sc2ccccc2c1-c1ccc2c(c1)OCCO2,-5%,0,?,3.6%,nt,-0.5
CCN(CC)S(=O)(=O)c1ccc(NC(=S)Nc2ccc(F)cc2)cc1,6%,2,-41%[inhibitor],-0.3%,-0.6,0.8
CC[C@H](NC(=O)/C=C/[C@H]1O[C@@H](n2cc(C)c(=O)[nH]c2=O)C[C@@H]1O)c1ccccc1,nt,-13,nt,-0.4%,nt,-0.5
COCCCn1c2nc3ccccc3nc2c2c(=O)n(Cc3ccc(Cl)cc3)cnc21,0%,-1,-2%,-13%,-8.0,-0.5
O=C(NCCCN1CCOCC1)C(=O)NCC1OCCCN1S(=O)(=O)c1cc(F)ccc1F (centres undefined),-2%,58,-1%[15.4 µM],0.3%,nt,-0.2
Cn1c(=O)c2c(nc(Br)n2CC(=O)C23CC4CC(CC(C4)C2)C3)n(C)c1=O,-3%,-3,?,-3.4%,3.4,0.5
O=C(Cc1nc(-c2ccc(Br)s2)cs1)NCCN1CCOCC1,4%,-17,?,-1.6%,2.3,0.0
COc1cccc(-c2cc(=O)[nH][nH]2)c1,-3%,1,25%,nt,8.0,-0.5
CC(Nc1nc(-c2ccc(F)cc2)cs1)c1nc2cc(Cl)c(N3CCCCC3)cc2n1CCOCCO (centres undefined),-20%,7,nt,-2.9%,nt,-0.5
CC(C)C(=O)N(Cc1ccccc1)S(=O)(=O)c1ccc2c(c1)oc(=O)n2C,-9%,20&7,4%,-1.7%&-0.8%,nt,0.0&5.1
COC(=O)Cc1ccc(NC(=S)NCCC(C)C)cc1,5%,-3,-2%[15.4 µM],nt,-2.6,1.6
Cc1ccc(S(=O)(=O)C2(C(=O)NCc3ccccc3Cl)CC2)cc1,4%,-1,3%,0.1%,0.5,2.0
CCN1CCN(C(c2ccc(C)cc2)c2c(O)cc(C)n(Cc3ccco3)c2=O)CC1 (centres undefined),nt,1,nt,0.0%,nt,0.9
CC(C)CN(C(=O)CCC(=O)OCc1ccc(Cl)cc1Cl)c1c(N)n(CC(C)C)c(=O)[nH]c1=O,-9%,-2,16%[15.4 µM],-2.5%,nt,0.6
CCN1CCN(Cc2ccc(NC(=O)c3cc(NC(=O)c4cnnc5ccccc45)cc(OC)c3)cc2C(F)(F)F)CC1,13%,-11&0,-30%&18%,0.1%&1.1%,-1.0,0.1&0.1
COc1ccc(NS(=O)(=O)c2ccc(N3CCCCC3)c(N)c2)cc1,-8%,-3,-2%,-2.7%,nt,1.8
O=C(Nc1ccccc1Cl)N1CCSc2ccccc21,4%,-5&10,-84%[inhibitor],-1.2%&-1.0%,-1.9,0.3&-0.6
COc1cc(/C=C/C(=O)c2ccc3c(c2)OCCO3)cc(OC)c1OC,-6%,-1,-7%,-1.2%,1.1,0.5
Cc1ccc(C(=O)Nc2cccc(C(F)(F)F)c2)cc1Nc1cncnc1,-19%,14&1,-48%[inhibitor],-0.4%&0.3%,5.0,2.3&0.5
O=C(COC(=O)CCCN1C(=O)c2cccc3cccc(c23)C1=O)Nc1cccc(C(F)(F)F)c1,-11%,69,?,28µM*,2.1,0.8
CC1CCCN(c2nc(-c3cccnc3)nc3scc(-c4ccccc4)c23)C1 (centres undefined),-5%,13,-5%[15.4 µM],14µM*,14,1.2
Cc1ccccc1-c1nnc(-c2cccc3ccccc23)o1,8%,42,5%[15.4 µM],0.4%,nt,0.8
CCCCNC(=O)CSc1nc2ccc(N3CCOCC3)cc2c(=O)n1Cc1ccc(OC)cc1,-22%,19,16%[15.4 µM],nt,-0.7,0.5
CCN(CC)C(=O)Cn1nc(-c2ccc(Cl)cc2)c2ccccc2c1=O,0%,25,-153%[inhibitor],nt,5.0,1.5
Cc1cc(=O)oc(C)c1C(=O)N[C@@H](Cc1ccccc1)C(=O)O,6%,-7,-4%,-4.0%,-3.2,0.7
CCOC(=O)c1ccc(CN(Cc2ccccc2C)S(=O)(=O)c2ccc(F)c(C)c2)cc1,nt,23,nt,-3.6%,nt,4.2
CN(C)C(=O)c1ccc2c3c(cccc13)CC2,7%,11,10%[15.4 µM],nt,-2.3,1.5
O=C(CCS(=O)(=O)c1ccccc1Cl)Nc1ccc(S(=O)(=O)Nc2ncccn2)cc1,3%,nt,-32%[inhibitor],-1.2%,-0.6,nt
COc1ccc(CNC(=O)c2oc3c(c2C)-c2nn(Cc4ccccc4Cl)cc2CC3)cc1,nt,-13,nt,?,nt,-0.1

# 5 of these compounds in another layout:
# The line under a structure holds: gsp antagonist | TRPML1 inh | gsp agonist | ClpP mod | Menin-MLL FL inh | TRPML1 agonist
Cc1ccccc1-c1nnc(-c2cccc3ccccc23)o1
→ 8% | 42 | 5%[15.4 µM] | 0.4% | nt | 0.8
CCCCNC(=O)CSc1nc2ccc(N3CCOCC3)cc2c(=O)n1Cc1ccc(OC)cc1
→ -22% | 19 | 16%[15.4 µM] | nt | -0.7 | 0.5
CCN(CC)C(=O)Cn1nc(-c2ccc(Cl)cc2)c2ccccc2c1=O
→ 0% | 25 | -153%[inhibitor] | nt | 5.0 | 1.5
Cc1cc(=O)oc(C)c1C(=O)N[C@@H](Cc1ccccc1)C(=O)O
→ 6% | -7 | -4% | -4.0% | -3.2 | 0.7
CCOC(=O)c1ccc(CN(Cc2ccccc2C)S(=O)(=O)c2ccc(F)c(C)c2)cc1
→ nt | 23 | nt | -3.6% | nt | 4.2

# New compounds follow
SMILES,gsp antagonist,TRPML1 inh,gsp agonist,ClpP mod,Menin-MLL FL inh,TRPML1 agonist
CC(C(=O)NC1=NCCS1)N1C(=O)C2CC=CCC2C1=O (centres undefined),3%,-16,5%,-0.6%,2.3,-0.2
CCc1cccc(NCc2ccccc2-c2nnc(-c3ccccc3Cl)o2)c1,nt,-16,nt,-6.2%,nt,0.5
FC(F)(F)c1ccc(NC(=S)NCc2ccccc2)cc1,nt,5,3%[15.4 µM],nt,0.6,0.5
O=C(COc1ccccc1C(=O)Nc1ccccc1)NCCc1ccccc1,nt,0,-1%[15.4 µM],-3.5%,0.2,0.9&-0.5
Cc1ccc2nc(NCCCNC(=O)c3cnccn3)c(C#N)cc2c1,14%,26,3%,-2.4%,-0.3,0.3
COc1ccc(CNC(=O)[C@@H](NC(=O)C2CCN(S(=O)(=O)c3ccc(C)cc3)CC2)C(C)C)cc1OC,6%,-12,-8%,2.4%,nt,1.3
COc1ccc(C(=O)COC(=O)/C=C/c2ccccc2)c(OC)c1,-10%,-5,5%,2.2%,nt,3.9
CC(Nc1ccc([N+](=O)[O-])cc1[N+](=O)[O-])c1ccccc1 (centres undefined),0%,18,11%,-5.5%,nt,2.9
COc1cccc(C2/C(=C(/O)c3ccc4c(c3)OCO4)C(=O)C(=O)N2CCN2CCOCC2)c1 (centres undefined),0%,19,11µM*,-1.7%,nt,0.5
Cc1ccccc1S(=O)(=O)NC(=NCc1ccc(F)cc1)c1ccccc1,3%,-13,-9%[15.4 µM],0.9%,nt,-0.1
O=C(NCc1ccccn1)c1ccc2nc(C3CCCCC3)oc2c1,2%,6,-16%,0.1%,3.8,-1.1
Cc1nc2ccc(NC(=O)COc3ccccc3C)cc2s1,2%,-2,-18%,-1.2%,2.0,-0.5
Cc1ccc(S(=O)(=O)N2CCC[C@H]2C(=O)OC(C)C(=O)Nc2ncc(Cl)cc2Cl)cc1 (some centres undefined),-4%,-3,-28%,-2.4%,0.0,-0.8
N#Cc1c(C(F)(F)F)cc(-c2cccs2)nc1SCC(=O)Nc1ccccc1F,nt,1,nt,?,nt,4.4
Brc1cc(Br)c2nc(-c3cccs3)ccc2c1,11%,24,?,-15%,0.7,6.5
Cc1ccc2[nH]c(C(=O)N3CCN(C=O)CC3)cc2c1,0%,34,-18%,-24%,0.0,-0.1
Cc1cc(Cl)c2oc(C(=O)NCCN3CCOC3=O)c(C)c2c1,3%,7,-10%,-14%,nt,-0.7
COc1ccc(CCNc2nc(-c3ccc(NC(C)=O)cc3)cs2)cc1OC,-4%,-8,2%[15.4 µM],1.1%,19,-1.2
O=C(NC(=O)N1CCCCC1)c1ccccc1,21%,10,-27%,0.3%,2.7,1.9
CCN(CC(=O)Nc1cc(C)c(Cl)cc1OC)CC(=O)NC1CCS(=O)(=O)C1 (centres undefined),7%,-9,-4%,nt,0.4,-0.1
O=c1[nH]nc(-c2ccccc2)cc1-c1ccccc1,-6%,-2,-22%,?,nt,-1.1
CC(=O)NC(Cc1c[nH]c2ccccc12)C(=O)N1CCN(S(=O)(=O)c2ccccc2)CC1 (centres undefined),10%,-15,-10%,?,nt,0.7
CCC(C)(C)NC(=O)C(c1ccc(O)cc1)N(Cc1ccco1)C(=O)CCC(=O)Nc1ccccn1 (centres undefined),-3%,37,-27%,nt,?,2.0
